Screens from PubChem BioAssay.
Env fusion inh: inhibitors of HIV-1 Env-driven cell-cell fusion, primary screen, HeLa-JRFL effector, CEM21 target cells, luciferase. inhibition, % at 12.3 µM. 360,000 tested, 1.1% active. AID 651610, 2012;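 active = mean replicate inhibition score of at least 50 and every replicate individually at or above 50; inconclusive = only one of the two criteria met; inactive = mean below 50 and not all replicates reaching 50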;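 also: 0% = plate neutral controls and 100% = maraviroc near 300 nM; one replicate is shown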
PABP polyA inh: PABP poly(A) RNA binding inhibitors, primary screen, biochemical, fluorescence polarization, uHTS. 290,000 tested, 1% active. inhibition, % at 35 µM;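 active = 50% or more with normal probe brightness, or confirmed in later tests; inconclusive = above 50% with abnormal brightness, or retests that disagree; inactive = below 50% or failed in later tests; about a fifth of its hits are not listed in these tables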;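 also: calls also rest on retests at 20 µM and on dose response follow-up; controls were probe without protein and protein plus probe with vehicle; some compounds called inactive have numbers as strong as hits; many hits fall short of the cut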
Target sequence (P11940 whole entry, looked up): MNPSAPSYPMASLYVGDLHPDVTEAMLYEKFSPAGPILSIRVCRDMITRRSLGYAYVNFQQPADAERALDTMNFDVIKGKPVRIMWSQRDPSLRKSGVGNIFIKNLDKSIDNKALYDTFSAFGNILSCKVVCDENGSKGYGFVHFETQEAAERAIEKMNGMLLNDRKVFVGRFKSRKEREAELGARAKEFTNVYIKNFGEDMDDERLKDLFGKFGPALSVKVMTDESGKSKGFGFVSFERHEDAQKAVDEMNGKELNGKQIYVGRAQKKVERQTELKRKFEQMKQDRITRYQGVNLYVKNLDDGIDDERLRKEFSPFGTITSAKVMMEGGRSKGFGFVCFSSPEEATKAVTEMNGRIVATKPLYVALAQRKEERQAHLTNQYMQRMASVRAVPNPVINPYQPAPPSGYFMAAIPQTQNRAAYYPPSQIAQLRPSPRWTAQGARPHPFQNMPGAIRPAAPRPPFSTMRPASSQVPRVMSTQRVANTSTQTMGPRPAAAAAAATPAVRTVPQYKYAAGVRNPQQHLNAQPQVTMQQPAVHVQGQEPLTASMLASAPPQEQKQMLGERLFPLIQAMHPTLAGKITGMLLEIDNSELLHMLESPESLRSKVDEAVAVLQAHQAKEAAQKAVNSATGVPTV
Rce1 inhib: yeast Rce1p protease inhibitors, primary screen, biochemical, fluorescence, cell-free homogeneous; yeast membranes, quenched prenylated peptide cleavage fluorescence; CAAX prenyl protease 2 (Saccharomyces cerevisiae (strain ATCC 204508 / S288c)), Q03530; 290,000 tested, 0.27% active; calls only; AID 2563, 2010;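 active = fall in fluorescence gain of 50% or more versus controls, with final raw signal at or below 3038400; inconclusive = same 50% fall but final raw signal above 3038400; inactive = fall in fluorescence gain under 50%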;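 also: plate controls were neutral control wells for no effect and wells lacking membranes for full effect; tested at 10 µM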
CSC inhib: cancer stem cell viability inhibitors, primary screen, luminescence. cancer stem cell-like cells viability. inhibition, % at 7.5 µM. 300,000 tested, 1.1% active;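 active = mean at 75% or more and at least half the replicates too; inconclusive = mean and replicates disagree; tested in HMLE shEcad cells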;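 also: 0% = median of negative and 100% = median of positive control wells; the first replicate is given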
MT1-MMP act inh: blockers of MT1-MMP proenzyme processing, primary screen, HT1080 RFP-PRO-GFP cells, GFP/RFP fluorescence | GFP/RFP ratio change, % at 20 µM | GFP/RFP ratio fluorescence, overnight; percent of plate control window, DMSO zero | Matrix metalloproteinase-14 (Homo sapiens), P50281 | 360,000 tested, 0.061% active | AID 651647, 2012;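 active = GFP/RFP ratio change of at least 30% with cell ATP level not reduced by more than half and red fluorescence within 50% of control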; also: strong numbers were not always called active
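Assay system – RFP-PRO-GFP reporter HT1080 cells · Compound dosing – single dose of 20 µM compound, 1% DMSO final · Incubation – overnight compound exposure at 37 °C · Measure – GFP/RFP fluorescence ratio · Benchmarks – DMSO wells and RFP-L50D-GFP cells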
UUG fidelity: modulators of yeast start codon fidelity, primary screen, whole organism, S. cerevisiae, single point, plate reader; S. cerevisiae UUG-firefly luciferase reporter, luminescence/redox ratio; activity score, % at 18.7 µM; 350,000 tested, 0.13% active; AID 602363, 2012;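 active = replicate mean at a twofold rise or more, about +100% in these data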;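 also: firefly luciferase made from a UUG start codon reports start codon fidelity; reporter light over untreated wells divided by growth signal over untreated wells; some hits fall short of that in this replicate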
eIF4H inh: human eIF4H binding inhibitors, primary screen, translation initiation inhibitor project, biochemical, uHTS, fluorescence polarization. Eukaryotic translation initiation factor 4H (Homo sapiens), Q15056. eIF4H fluorescence polarization binding assay. inhibition, % at 35 µM. 290,000 tested, 0.94% active. AID 2012, 2009;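 active = 50% or more with normal probe brightness, or confirmed in later tests; inconclusive = above 50% with abnormal brightness, or retests that disagree; inactive = below 50% or failed in later tests; about a fifth of its hits are not listed in these tables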;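 also: calls also rest on retests at 20 µM and on dose response follow-up; 0% = protein and probe with vehicle and 100% = probe without protein; strong numbers were not always called active; many hits fall short of the cut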
eIF4H inh retest: second read-out of eIF4H inh, no call of its own (marks repeat the call); inhibition, %; compound at 20 µM; confirmation average;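 mean of two retest wells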
PABP polyA inh retest: second read-out of PABP polyA inh, no call of its own (marks repeat the call); inhibition, %; compound at 20 µM; confirmation repeats;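 mean of two retest wells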
MT1-MMP act inh RFP: second read-out of MT1-MMP act inh, no call of its own (marks repeat the call); RFP signal change, %; measured here: RFP expression control read;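 0 = vehicle wells; hits needed this value within 50% of zero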
* = called active by the depositor; i = inactive; ? = inconclusive; nt = no result given. This is a subset. The share of hits here may be higher or lower than overall.

SMILES | Env fusion inh | PABP polyA inh | Rce1 inhib | CSC inhib | MT1-MMP act inh | MT1-MMP act inh RFP | UUG fidelity | eIF4H inh | others
O=C(O)C1C2C=CC(C2)C1C(=O)OCC1CCCO1 (stereo not drawn) | nt | -4 | i | -6 | 6 | 2 | -3 | 3
C/C(CCc1ccccc1)=N\NC(=S)NCCc1ccccc1 | 3 | -12 | i | -5 | 0 | 2 | -34 | 5
CCc1cc(C(=O)NC2CCCc3c2cnn3-c2cccc(C)c2C)n(C)n1 (stereo not drawn) | nt | 10 | i | 6 | nt | nt | nt | 0
CCOc1nc(NCCC2=CCCCC2)nc(N2CCOCC2)n1 | nt | 8 | i | -16 | -1 | -4 | -11 | 0
CC[C@]12c3[nH]c4ccc(Cl)cc4c3CCN1C(=O)[C@@H](CC(=O)NC/C=C(\C)CCC=C(C)C)C[C@@H]2C(=O)N1CCN(C(=O)c2ccco2)CC1 | -34 | nt | nt | nt | -1 | -13 | -6 | nt
Cc1ccc(NC(=O)CSc2nccc(=O)[nH]2)c(S(=O)(=O)N2CCOCC2)c1 | nt | 0 | i | -12 | 5 | 7 | -5 | -5
Fc1ccc(NC(=S)Nc2cccnc2)c(Cl)c1 | 4 | -4 | i | -7 | 0 | 1 | nt | 2
O=C(Nc1ccccc1N1CCOCC1)c1cccc([N+](=O)[O-])c1 | -7 | -8 | i | 1 | -10 | 0 | -6 | 4
CCN(c1ccccc1)S(=O)(=O)c1ccc(Cl)c(NC(=O)CNCc2ccccc2OC)c1 | 23 | nt | nt | 0 | 1 | -10 | -6 | nt
CN(C)C(=S)c1ccccc1 | 21 | 5 | i | 1 | 0 | -1 | -18 | -3
CC(C)NC(=O)C1c2ccccc2Oc2ccccc21 | -2 | -8 | i | -2 | -1 | -2 | -9 | -5
CS(=O)(=O)c1ncc(Cl)c(C(=O)Nc2ccc(N3CCOCC3)cc2)n1 | nt | 4 | i | ? | 6 | 4 | nt | 6
O=C(NCC(c1ccco1)N1CCCC1)c1ccc(S(=O)(=O)Nc2ccc(F)cc2)cc1 (stereo not drawn) | -2 | nt | nt | nt | 2 | -1 | -5 | nt
CCOC(=O)C1=C(O)C(=O)N(Cc2ccccc2)CC1 | 1 | -9 | i | -1 | 2 | 4 | -9 | 0
Cc1cc(=O)[nH]c(NN)n1 | 12 | 1 | i | -18 | 2 | 5 | -14 | 0
CS(=O)(=O)N1CCN(Cc2ccc([N+](=O)[O-])cc2)CC1 | -3 | -6 | i | 5 | -3 | -5 | nt | -7
COc1ccc(-c2cc(C(=O)N3CCN(C(=O)c4ccccc4F)CC3)[nH]n2)cc1 | 15 | 11 | i | -4 | 0 | -2 | -17 | 4
FC(F)(F)c1cc(Oc2ccc(Cl)cc2)ncc1-c1nnc(-c2ccc(Cl)cc2)o1 | -6 | 6 | i | 4 | -2 | -1 | -11 | 7
O=S(=O)(c1ccccc1Br)N(CC(O)COCc1ccccc1)C1CC1 (stereo not drawn) | 6 | nt | nt | nt | -1 | -5 | -9 | nt
CCOC(=O)C1(Cc2ccc(O)cc2)NC(c2ccccc2F)C2C(=O)N(C)C(=O)C21 (stereo not drawn) | 18 | -7 | i | -7 | 1 | 7 | -9 | -5
CCCCN(C)C(=O)c1cc2c(Cl)nc3ccccc3c2s1 | 8 | 2 | i | -9 | -1 | 3 | -5 | -16
CC(C)CNC(=O)c1ccccc1N(Cc1ccccc1)S(C)(=O)=O | 0 | 8 | i | -14 | 1 | 0 | -10 | -5
COc1cc(NC(=S)N2CCN(S(=O)(=O)c3ccc(C)cc3)CC2)cc(OC)c1 | -7 | -10 | i | 7 | -2 | -1 | -23 | -4
CC(=C\c1ccccc1)/C=C1/SC(=S)N(CCC(=O)Nc2ccccn2)C1=O | nt | 2 | i | 22 | nt | nt | nt | 21
O=C(NCC(c1ccco1)N1CCN(c2ccccc2)CC1)C(=O)NC1CCCC1 (stereo not drawn) | 5 | nt | i | -11 | 4 | -4 | -13 | nt
CCc1nn(CCCC(=O)NCc2cc(Br)ccc2OC)c(=O)c2cc3occc3n12 | 3 | 16 | i | -20 | 1 | -7 | -10 | 0
Cc1ccc(S(=O)(=O)N2[C@@H](c3cccc(Cl)c3)C(C(=O)O)=CC[C@H]2c2ccc(C(C)C)cc2)cc1 | -19 | nt | nt | 9 | -3 | 3 | -16 | nt
O=C(CCCCCNC(=O)c1ccccc1)N=Nc1c(O)[nH]c2c(Br)cc(Br)cc12 | nt | 0 | i | 18 | nt | nt | nt | 6
Cc1cccc(NC(=O)Cn2nnc3sc4c(c3c2=O)CC(C)(C)OC4)c1 | -7 | -9 | i | 4 | 2 | -4 | 6 | 2
COCCCNC(=O)c1ccc(Cn2c(=O)[nH]c3ccccc3c2=O)cc1 | -7 | 0 | nt | -2 | 0 | 5 | -9 | 2
CN(C)CCNc1nc2c(c(=O)[nH]c(=O)n2C)n1CC(O)COc1ccc(Cl)cc1Cl (stereo not drawn) | nt | -9 | i | -4 | -2 | 4 | nt | 5
Cc1cc(OCC(=O)Nc2nnc(C3CC3)s2)ccc1C(C)C | 7 | nt | nt | nt | -1 | 0 | -5 | nt
c1coc(CNc2nc(N3CCCCC3)nc3ccccc23)c1 | nt | 7 | i | 3 | 2 | -7 | -25 | -3
CC1=C(C(=O)N(C)C)CC(CC(=O)NCc2cccc3ccccc23)C(=O)N1CCC1=CCCCC1 (stereo not drawn) | -1 | nt | nt | nt | 0 | -1 | -4 | nt
O=C(NCc1cccs1)C1CCN(S(=O)(=O)c2ccc3c(c2)OCCO3)CC1 | 9 | -2 | i | 3 | 5 | -3 | -13 | -3
C=CCn1nnnc1SCC(=O)Nc1ccccc1C(=O)OC | 1 | 11 | i | -7 | 1 | 5 | -19 | -7
CC(O)(c1ccc(F)c(F)c1)c1nc(-c2cccc(C(F)(F)F)c2)cs1 (stereo not drawn) | 3 | nt | nt | nt | 5 | 3 | -41 | nt
Cc1ccc(NC(=O)C2CCCCC2C(=O)O)cc1Cl (stereo not drawn) | 8 | -3 | i | -7 | 2 | 1 | nt | 3
O=C(c1cc(Br)c(Br)s1)N1CCOCC1 | 63* | nt | i | -8 | 2 | -2 | -4 | nt
O=C(CCNS(=O)(=O)c1ccc2nsnc2c1)N1CCN(c2ccncc2)CC1 | ? | nt | nt | 41 | -4 | -3 | -21 | nt
CCn1cc(CNC(=O)C2CCC(=O)N(Cc3ccc(Cl)cc3)C2)cn1 (stereo not drawn) | -13 | -4 | i | 2 | 1 | 4 | -22 | 6
CNC(=S)NNC(=O)c1ccc(=O)n(Cc2ccc(Cl)cc2Cl)c1 | 9 | -1 | i | -9 | -4 | -10 | -42 | 12
Cn1cc(Cl)c(C(=O)NNC(=S)NC2CCCCC2)n1 | 7 | 18 | i | -25 | 3 | 6 | -35 | 6
C/C(=N\NC(=O)c1ccc2ccccc2c1)c1cccs1 | -152 | -13 | i | 3 | 3 | 1 | -1 | -4
CC1=C(C(N)=O)C(c2ccc(Cl)cc2)NC(=O)N1 (stereo not drawn) | -2 | nt | i | -4 | 3 | 7 | -10 | nt
O=C(Oc1ccc(-c2cn3c(n2)SCC3)cc1)c1ccccc1 | 14 | 4 | i | 6 | 0 | -2 | nt | -3
NCCCC[C@H]1CNC(=O)C(=O)N1CCC12CC3CC(CC(C3)C1)C2 | 9 | 8 | i | 2 | -4 | 0 | -7 | 3
COc1ccc(C(=O)CSc2nc3ccccc3n2CC(=O)NC(C)(C)C)cc1 | nt | 2 | nt | -7 | 13 | 3 | 4 | 6
CC(=O)CCc1ccc(Oc2nc(-c3cccnc3)nc3ccccc23)cc1 | 1 | -1 | i | 67 | -15 | -18 | nt | -3
COc1cccc(CN2CCNC(=O)C2CC(=O)NCCn2cccn2)c1OC (stereo not drawn) | 10 | 11 | nt | -1 | -1 | 0 | nt | 8
CCOc1ccc(N=Cc2ccc([N+](=O)[O-])cc2)c(O)c1 | -110 | nt | nt | nt | 2 | 13 | -5 | nt
CCCNC(=O)C1CN(S(=O)(=O)c2ccccc2)CCN1S(=O)(=O)c1ccccc1 (stereo not drawn) | nt | -1 | i | -16 | 1 | 2 | -16 | -6
Nc1cc2c(cc1Cl)-c1ccc([N+](=O)[O-])cc1C2=NO | -24 | nt | nt | nt | -128 | -9 | -5 | nt
COC(=O)N/N=C(/c1ccccc1)C1CCCCC1 | nt | -9 | i | 9 | nt | nt | nt | -2
C=CCn1c(SCC(=O)NC(=O)NCc2ccco2)nc2sc(CC)cc2c1=O | 15 | 28* | i | -8 | -4 | -4 | -5 | 84* | eIF4H inh retest=64*;PABP polyA inh retest=57*
CCn1c(C)nnc1SCC(=O)Nc1ccc(OC)cc1 | -21 | nt | nt | nt | 0 | 3 | -17 | nt
Cc1cccc(N(C(=O)c2csnn2)C(C(=O)NCc2ccccc2)c2cccs2)c1 (stereo not drawn) | -2 | -1 | i | 9 | 1 | 3 | 7 | -8
COc1ccc(C(=O)Nc2ccc(C(=O)c3ccccc3)cc2)cc1 | -2 | nt | nt | 11 | -8 | -28 | -16 | nt
CC(C)n1c(=NC(=O)c2ccco2)c(C#N)cc2c(=O)n3ccccc3cc21 | nt | 0 | i | 53 | -7 | -1 | -7 | 31
COc1ccccc1C(O)(C(=O)NNc1cccc(C)c1)c1ccccc1OC | 21 | 4 | i | 0 | -1 | 1 | nt | 5
Continuation.
SMILES | Env fusion inh | PABP polyA inh | Rce1 inhib | CSC inhib | MT1-MMP act inh | MT1-MMP act inh RFP | UUG fidelity | eIF4H inh | others
CCOC(=O)n1c(=O)n(Cc2ccccc2Cl)c2ccccc21 | nt | 3 | i | -2 | 1 | -4 | -38 | 4
O=[N+]([O-])c1ccc(OCCCOc2cccc3cccnc23)cc1 | -4 | 0 | i | 3 | 1 | -2 | -12 | 2
COc1ccc(CNC(=O)CCc2nnc3ccc(N4CCC5(CC4)OCCO5)nn23)cc1 | -8 | -10 | i | -7 | 1 | 6 | -18 | -9
O=C(C1CCCO1)N1CCN(S(=O)(=O)c2cccc3nsnc23)CC1 (stereo not drawn) | nt | -4 | i | nt | -2 | 4 | 4 | -2
CC(=O)c1ccccc1NC(=O)C1CC(=O)N(c2ccc3c(c2)OCCO3)C1 (stereo not drawn) | -2 | nt | nt | nt | -5 | -3 | 6 | nt
Cc1nn(CCO)c2nc(-c3cccs3)cc(C(F)(F)F)c12 | nt | -11 | i | -1 | -5 | 0 | nt | -1
O=C(O)c1cc2cc(Cl)ccc2oc1=O | -32 | 8 | i | -5 | -7 | 1 | nt | -14
O=C(COc1ccccc1/C=C1/NC(=O)NC1=O)Nc1ccccc1 | 9 | -2 | i | -14 | -2 | 4 | -20 | 5
CCOC(=O)C1=C(CC)Nc2ccccc2N/C1=N\S(=O)(=O)c1cccc(C(C)=O)c1 | nt | nt | nt | 5 | -1 | 3 | 2 | nt
CCOC(=O)C1(CC2CCCCO2)CCN(Cc2nccn2-c2ccc(OC)cc2)CC1 (stereo not drawn) | -15 | -5 | i | -3 | -3 | -1 | nt | -10
